eIF4H inh: inhibitors of RNA binding by human eIF4H. Q15056. eIF4H fluorescence polarization binding assay. inhibition, % at 35 µM. 290,000 tested, 0.94% active. AID 2012;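 active = 50% or more with normal probe brightness, or confirmed in later tests; about a fifth of its hits are not listed in these tables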;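 note: calls also rest on retests at 20 µM and on dose response follow-up; 0% = protein and probe with vehicle and 100% = probe without protein; strong numbers were not always called active; many hits fall short of the cut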
Env fusion inh: blocks HIV Env-driven cell-cell fusion | HeLa-JRFL Env/CEM21 cell fusion, luciferase | inhibition, % at 12.3 µM | 360,000 tested, 1.1% active;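 active = mean replicate inhibition score of at least 50 and every replicate individually at or above 50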;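 note: 0% = plate neutral controls and 100% = maraviroc near 300 nM; one replicate is shown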
MT1-MMP act inh: blocks activation of human MT1-MMP; P50281; HT1080 RFP-PRO-GFP cells, GFP/RFP ratio fluorescence, overnight; percent of plate control window, DMSO zero; GFP/RFP ratio change, % at 20 µM; 360,000 tested, 0.061% active;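 active = GFP/RFP ratio change of at least 30% with cell ATP level not reduced by more than half and red fluorescence within 50% of control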; note: strong numbers were not always called active
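Test system: HT1080 RFP-PRO-GFP cells; Benchmarks: DMSO and RFP-L50D-GFP cell wells; Timing: cells overnight before dosing, compound overnight, 37 °C, 5% CO2; Compound: one 20 µM compound dose with 1% DMSO; Read-out: GFP/RFP fluorescence ratio.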
CSC inhib: blocks cancer stem cells. 300,000 tested, 1.1% active. inhibition, % at 7.5 µM. cancer stem cell-like cells viability, luminescence;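 active = mean at 75% or more and at least half the replicates too; tested in HMLE shEcad cells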;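 note: 0% = median of negative and 100% = median of positive control wells; the first replicate is given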
Rce1 inh: blocks yeast Ras-converting enzyme | yeast membranes, quenched prenylated peptide cleavage fluorescence | calls only | 290,000 tested, 0.27% active | Q03530;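 active = fall in fluorescence gain of 50% or more versus controls, with final raw signal at or below 3038400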;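 note: plate controls were neutral control wells for no effect and wells lacking membranes for full effect; tested at 10 µM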
PABP FP inh: PABP-poly(A) binding inhibition | inhibition, % at 35 µM | 290,000 tested, 1% active | PABP-poly(A) RNA binding, fluorescence polarization | P11940;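 active = 50% or more with normal probe brightness, or confirmed in later tests; about a fifth of its hits are not listed in these tables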;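 note: calls also rest on retests at 20 µM and on dose response follow-up; controls were probe without protein and protein plus probe with vehicle; some compounds called inactive have numbers as strong as hits; many hits fall short of the cut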
Target sequence (P11940 whole entry, looked up): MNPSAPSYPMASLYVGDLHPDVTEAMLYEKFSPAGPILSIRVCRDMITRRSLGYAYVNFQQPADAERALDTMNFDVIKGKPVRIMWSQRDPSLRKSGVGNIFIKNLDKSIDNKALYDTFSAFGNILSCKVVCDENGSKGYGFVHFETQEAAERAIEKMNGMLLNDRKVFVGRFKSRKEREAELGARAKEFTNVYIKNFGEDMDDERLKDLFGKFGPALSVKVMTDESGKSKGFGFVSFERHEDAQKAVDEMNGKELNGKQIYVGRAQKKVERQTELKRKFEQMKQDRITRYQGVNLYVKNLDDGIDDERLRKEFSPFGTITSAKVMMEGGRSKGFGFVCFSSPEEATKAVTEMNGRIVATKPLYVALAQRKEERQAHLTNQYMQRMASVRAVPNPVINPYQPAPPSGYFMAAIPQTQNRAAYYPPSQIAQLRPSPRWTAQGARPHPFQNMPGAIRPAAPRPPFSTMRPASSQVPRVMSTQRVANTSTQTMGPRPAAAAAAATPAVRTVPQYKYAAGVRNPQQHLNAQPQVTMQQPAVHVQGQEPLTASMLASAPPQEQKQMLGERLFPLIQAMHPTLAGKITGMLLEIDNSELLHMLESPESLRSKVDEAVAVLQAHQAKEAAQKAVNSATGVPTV
Yeast UUG start: modulators of start codon recognition fidelity in yeast. S. cerevisiae UUG-firefly luciferase reporter, luminescence/redox ratio. activity score, % at 18.7 µM. 350,000 tested, 0.13% active;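 active = replicate mean at a twofold rise or more, about +100% in these data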;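 note: firefly luciferase made from a UUG start codon reports start codon fidelity; reporter light over untreated wells divided by growth signal over untreated wells; some hits fall short of that in this replicate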
eIF4H inh retest: also measured in eIF4H inh; calls as there; inhibition, %; compound at 20 µM; confirmation average;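 mean of two retest wells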
PABP FP inh retest: recorded beside PABP FP inh, whose call it bears; inhibition, %; compound at 20 µM; confirmation repeats;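 mean of two retest wells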
MT1-MMP act inh RFP: also measured in MT1-MMP act inh; calls as there; RFP signal change, %; measured here: RFP expression control read;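 0 = vehicle wells; hits needed this value within 50% of zero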
Starred values were filed as active, the others as inactive; i = inactive; x = no result given.

SMILES	eIF4H inh	Env fusion inh	MT1-MMP act inh	MT1-MMP act inh RFP	CSC inhib	Rce1 inh	PABP FP inh	Yeast UUG start	others
CC(=O)c1cccc(Nc2c([N+](=O)[O-])c(=O)oc3ccccc23)c1	-5	-5	0	0	3	i	-3	16
CCN(CC)S(=O)(=O)c1ccc(C(=O)NN(C)C2=NS(=O)(=O)c3ccccc32)cc1	-1	-22	-7	0	29	i	13	11
O=C1CSC(=Nc2cccc(C(=O)O)c2)N1	-2	3	3	3	-16	i	0	-15
O=C(CCc1ccccc1)N=C1SC2CS(=O)(=O)CC2N1Cc1ccc(F)cc1 (stereo unspecified)	-9	-2	-3	-3	2	i	0	-19
O=C(Nc1nnc(-c2cccs2)s1)C1CC1	-5	-23	14	2	-6	i	4	-14
CC(C)CCN(C)C1CCN(S(=O)(=O)c2cccc(C(F)(F)F)c2)CC1	-2	x	3	4	x	i	-3	-2
O=C(c1ccccc1)N1CCN=C1c1ccccc1	0	-15	-2	1	2	i	-4	1
Cc1cc(Cl)ccc1OCCCC(=O)NN	3	-1	-1	2	5	i	9	0
CCOc1cc(NC(=S)Nc2ccccc2)c(OCC)cc1NC(=O)c1ccc(OC)cc1	-9	-6	10	6	-14	i	4	-23
CCC(=O)Nc1ccc(C(=O)OCc2ccc(Cl)c(Cl)c2)cc1	-3	-6	5	3	24	i	7	x
CCc1nc2ccccc2n(CC)c1=O	-3	x	5	10	11	i	5	-16
C=CC[C@H](CC(=O)NCCO)C(=O)N[C@@H](COC(=O)[C@@H](CC=C)Cc1ccc(F)cc1)Cc1c[nH]c2ccccc12	x	19	-2	-4	x	x	x	-2
CCc1ccc(NC(=O)Cn2c(=O)oc3cc(S(=O)(=O)N4CCOCC4)ccc32)cc1	-8	1	-2	-20	-5	i	0	-15
N#CC1=C(N)c2ccccc2CC12CCCCC2	0	x	-2	-3	-13	i	3	-28
CC(=O)NC(c1ccccc1)c1nc(-c2cccc(C(=O)O)c2)cs1 (stereo unspecified)	x	22	1	9	x	x	x	0
Cc1ccc(S(=O)(=O)N2C[C@@H]3[C@H]4CC[C@H](C4)[C@@H]3[C@@H](C)C2CC(=O)c2ccccc2)cc1 (stereo partly specified)	x	34	-4	-8	x	x	x	-13
COc1cc(/C=C2/S/C(=N/S(=O)(=O)c3ccccc3)NC2=O)c([N+](=O)[O-])cc1OC	22	-6	8	14	-18	i	63	-15	eIF4H inh retest=1;PABP FP inh retest=5
CC(C)(C)NCC(O)Cn1cc(C=O)c2ccccc21 (stereo unspecified)	2	-7	0	3	-9	i	-4	-11
OCC[C@@H]1C[C@H](O)[C@@H](O)[C@@]2(Cc3ccccc3O2)O1	-4	-2	2	0	-8	i	-13	-10
NC(=O)c1ccc2c(=O)n3c(-c4cc(Cl)c(N)c(Cl)c4)csc3nc2c1	89	17	0	-5	34	i	29	19	eIF4H inh retest=46;PABP FP inh retest=27
CCN1C(=O)[C@H]2[C@@H](c3ccc(-c4cc(C(C)=O)cs4)cc3)N3CCCC[C@@]3(C(=O)OC)[C@H]2C1=O	x	44	-8	-9	4	x	x	-25
COc1ccc(C(O)c2coc3ccc(O)c(CN(C)C)c23)cc1 (stereo unspecified)	-12	-59	-3	7	-3	i	-17	2
Cc1ccc(OCCNC(=O)c2cc(-n3cnnc3)ccc2Cl)cc1C	1	1	9	3	2	i	2	-8
CCOc1ncccc1C(=O)OCC(=O)c1cccs1	0	x	1	0	-8	i	1	-13
COc1ccc([N+](=O)[O-])cc1/C=N/NC(=O)CNC(=O)c1cccc(F)c1	-2	x	2	2	-11	i	-5	-12
CCOC(=O)c1ccc(NC(=O)CCC(CC)C(=O)O)cc1 (stereo unspecified)	13	x	1	9	-4	i	17	-10
Cc1cccc(CN2[C@@H](CC(C)C)COCCS2(=O)=O)c1	x	16	2	3	-4	i	x	-13
COc1ccccc1-c1c(C)nn2c(N3CCCCCC3)cc(C)nc12	4	31	21	-29	x	i	-12	-20
O=c1oc(-c2ccccc2F)nc2c1cnn2-c1ccccc1	-14	-66	-2	-1	8	i	-13	3
Cc1onc(-c2c(F)cccc2Cl)c1C(=O)N1CCc2ccccc21	1	x	2	0	14	i	-11	x

Next section (6 carried over from the part before).
SMILES	eIF4H inh	Env fusion inh	MT1-MMP act inh	MT1-MMP act inh RFP	CSC inhib	Rce1 inh	PABP FP inh	Yeast UUG start	others
COc1ccc([N+](=O)[O-])cc1/C=N/NC(=O)CNC(=O)c1cccc(F)c1	-2	x	2	2	-11	i	-5	-12
CCOC(=O)c1ccc(NC(=O)CCC(CC)C(=O)O)cc1 (stereo unspecified)	13	x	1	9	-4	i	17	-10
Cc1cccc(CN2[C@@H](CC(C)C)COCCS2(=O)=O)c1	x	16	2	3	-4	i	x	-13
COc1ccccc1-c1c(C)nn2c(N3CCCCCC3)cc(C)nc12	4	31	21	-29	x	i	-12	-20
O=c1oc(-c2ccccc2F)nc2c1cnn2-c1ccccc1	-14	-66	-2	-1	8	i	-13	3
Cc1onc(-c2c(F)cccc2Cl)c1C(=O)N1CCc2ccccc21	1	x	2	0	14	i	-11	x
CSc1ccccc1C(=O)C1CCCN(S(=O)(=O)c2c(C)noc2C)C1 (stereo unspecified)	-3	-7	-3	-1	-2	i	-5	x
COc1ccccc1Cc1nc(-c2cccnc2)no1	-6	-13	1	0	-2	i	-8	-9
CC(=O)Nc1sc(N/N=C\c2ccccc2)nc1-c1cccs1	-5	-28	-6	7	-14	i	1	x
CC(=O)Nc1ccc(S(=O)(=O)Nc2ccc(S(=O)(=O)N3CCCCCC3)cc2)cc1	-10	-21	-1	5	-1	i	1	6
COc1ccccc1NC(=O)N(C)C[C@H]1OCc2cnnn2CCCC(=O)N([C@H](C)CO)C[C@H]1C	x	6	-2	5	x	x	x	2
CN(CC(=O)Nc1c(Cl)cccc1Cl)C(=O)Cc1ccsc1	x	-1	3	5	-3	x	x	-11
CCCn1c(O)c(/C=C2\C=NN=C2c2ccccc2)sc1=S	-9	-4	-1	-7	39	i	-1	-2
COc1cc2c(cc1OC)CN(C(=O)CN1C(=O)c3ccc([N+](=O)[O-])cc3C1=O)CC2	x	-5	-3	3	8	i	x	x
COc1ccc(CN(Cc2cccn2C)S(=O)(=O)c2ccc(C)cc2)cc1	-5	21	-2	-5	9	i	-14	-7
COc1ccc(C(CNC(=O)c2ccc(N3CCCC3=O)cc2)N(C)C)cc1 (stereo unspecified)	2	x	3	-5	-15	i	5	-3
CCN(CC)CCN(Cc1cc2ccc(C)cc2[nH]c1=O)C(=O)Nc1ccc(Cl)cc1	0	11	0	-1	-3	i	-8	x
O=C(NCC1(N2CCOCC2)CCCCC1)c1ccc(S(=O)(=O)Nc2ccccc2F)cc1	-11	-27	-4	-2	x	i	2	-15
COc1ccccc1CNC(=O)COc1ccc(S(=O)(=O)N2CCOCC2)cc1C	-6	-9	1	1	-21	i	-4	8
COc1ccccc1CNCC(=O)N1CC(=O)Nc2ccccc21	11	-9	-1	2	-15	i	2	x
Cc1onc(-c2ccccc2)c1C(=O)OCC(=O)N(C)c1c(N)n(Cc2ccccc2)c(=O)[nH]c1=O	x	-6	-4	1	6	i	x	-8
Cc1ccc(S(=O)(=O)N2C[C@H]3C(=O)C[C@@H](c4ccccc4)N(S(=O)(=O)c4ccc(C)cc4)[C@H]3C[C@H]2c2ccc(Cl)cc2)cc1	x	18	-1	-2	x	x	x	-6
Cc1ccc(CC(=O)NCCC(=O)O)cc1	-10	5	2	3	14	i	-7	-33
CC(=O)Nc1ccc(N(C(=O)CNC(=O)c2ccco2)C(C(=O)NC2CCCC2)c2ccco2)cc1 (stereo unspecified)	-2	2	-1	0	0	i	6	-19
O=C(CNC(=O)c1ccccc1)NCC1COc2ccccc2O1 (stereo unspecified)	4	x	-5	-1	12	i	7	-13
Cc1cc(C)c(-c2csc(Cc3nc(-c4cc5ccccc5oc4=O)cs3)n2)cc1C	1	14	-7	-19	30	i	6	-15
Cc1ccc(S(=O)(=O)CC(=O)Nc2nc(-c3ccccc3)cs2)cc1	3	x	3	-5	8	i	2	-8
COc1ccc(NC(=O)c2ccc(COc3ccccc3Br)o2)cc1OC	-11	x	-4	-6	96*	i	-1	5
Cc1cc(C)c(C(=O)C(C)OC(=O)Cc2n[nH]c(=O)c3ccccc23)cc1C (stereo unspecified)	-8	4	0	0	-9	i	-4	-6
C=CCn1c(SCc2nc3ccccc3c(=O)[nH]2)nnc1-c1cc2cc(Cl)ccc2o1	4	x	-7	0	10	i	0	x
COc1ccc(NC(=O)CSc2nnnn2-c2ccccc2F)cc1	6	-32	2	2	-1	i	6	-10
COc1ccc(-c2nc(CS(=O)CC(=O)NCc3ccc4c(c3)OCO4)c(C)o2)cc1 (stereo unspecified)	-7	-7	-2	1	-1	i	2	-7
COc1ccccc1C(=O)C1CCCN(C(=O)c2cc(CC(C)C)nc(C)n2)C1 (stereo unspecified)	7	22	0	4	6	x	0	x
CCc1ccc(NC(=S)N(CCOC)C2CCN(C(C)=O)CC2)cc1	9	-6	-2	-3	-13	i	-3	-10
NC(=O)c1sc2nc3c(cc2c1N)CCC3	4	9	-10	-2	3	i	-5	x
CCOC(=O)N1CCC(N2C(=O)c3ccccc3C2Nc2ccc(S(=O)(=O)N(CC)CC)cc2)CC1 (stereo unspecified)	-10	20	1	-4	-10	i	-5	x

Six records drawn at random from the list so far:
SMILES	eIF4H inh	Env fusion inh	MT1-MMP act inh	MT1-MMP act inh RFP	CSC inhib	Rce1 inh	PABP FP inh	Yeast UUG start	others
COc1ccccc1CNC(=O)COc1ccc(S(=O)(=O)N2CCOCC2)cc1C	-6	-9	1	1	-21	i	-4	8
NC(=O)c1sc2nc3c(cc2c1N)CCC3	4	9	-10	-2	3	i	-5	x
CCC(=O)Nc1ccc(C(=O)OCc2ccc(Cl)c(Cl)c2)cc1	-3	-6	5	3	24	i	7	x
CSc1ccccc1C(=O)C1CCCN(S(=O)(=O)c2c(C)noc2C)C1 (stereo unspecified)	-3	-7	-3	-1	-2	i	-5	x
CCN(CC)CCN(Cc1cc2ccc(C)cc2[nH]c1=O)C(=O)Nc1ccc(Cl)cc1	0	11	0	-1	-3	i	-8	x
Cc1onc(-c2c(F)cccc2Cl)c1C(=O)N1CCc2ccccc21	1	x	2	0	14	i	-11	x
